VACV Venus inh – inhibitors of vaccinia virus (Venus reporter) | Vaccinia virus Venus reporter expression, fluorescence | Potency, µM (titrated, usually from 36.5 µM), for inactives: at the highest dose activity change, negative = inhibition, most hits filed as inhibitors | 330,000 compounds, 0.46% hits | AID 720580; active means well fitted inhibition curve with a large enough effect; inconclusive means small, poorly fitted or top-dose-only effect; inactive means no such curve, though single readings can be large or run the other way; tested in A549 cells; note: nearly all actives have a fitted effect of over 30% in size; inactives centre near -10
VACV mCherry inh – inhibitors of vaccinia virus infection (mCherry reporter signal) | Vaccinia virus mCherry reporter infection, fluorescence; about a quarter of the inactives have no number | Potency, µM (titrated, usually from 36.5 µM), for inactives: at the highest dose activity change, negative = inhibition, actives largely listed as inhibitors | 310,000 compounds, 0.63% hits; active = well fitted inhibition curve with a large enough effect; inconclusive = small, poorly fitted or top-dose-only effect; inactive = no such curve, though single readings can be large or run the other way; tested in A549 cells; note: nearly all actives have a fitted effect of over 35% in size; inactives centre near -10
* = called active by the depositor; i = inactive; u = inconclusive; x = not tested or not shown; [ ] = remark or other dose. % is set by controls: 0 for no effect and ±100 for the full control effect; potency is the fitted concentration of half-maximal effect.

Structure,VACV Venus inh,VACV mCherry inh
CCCCNC(=O)OC1CCS(=O)(=O)C1 (stereo not drawn),-1%,-2%
COc1cc(-c2nc3ccccn3c2/N=C/c2ccccc2)ccc1O,-4%,0%
CN(Cc1ccccc1)C(=O)COc1cccnc1[N+](=O)[O-],-12%,i
CNC(=O)[C@@]1(Cc2ccccc2)C=C[C@@H](C)N1C(=O)OC,2%,i
COc1ccc(NC(=O)Nc2nnc([C@@H]3C[C@H](O)[C@@H](CO)O3)s2)cc1,6%,0%
COc1ccc2c(c1)nc(NCCO)n2C,-19%,-16%
CC(=O)Nc1ccc(S(=O)(=O)Nc2cccc(-c3ccc(N4CCCCCC4)nn3)c2)cc1,-2%,-14%
Cn1c(=O)c2cc(S(=O)(=O)NC(C(=O)N3CCCCCC3)c3ccccc3)ccc2n(C)c1=O (stereo not drawn),-25%,-18%
COCCn1c(SCC(=O)N2CCCC2=O)nc2sc(C)c(C)c2c1=O,5%,i
O=C1NC(c2cccc3ccccc23)Nc2ccc(Cl)cc21 (stereo not drawn),11µM*,u
COc1ccc(-n2nc([N+](=O)[O-])c(=NCCc3ccc(C)cc3)n2O)cc1,-11%,-19%
O=C(/C=C\c1cn(-c2ccccc2)nc1-c1cccs1)N1CCOCC1,-18%,-25%
Cn1cc(SCC(=O)N2CCN(c3ccccc3)CC2)c2ccccc21,0%,-19%
CC1=C(C(=O)OC(C)C)[C@]2(C(=O)N(CC(N)=O)c3ccccc32)C(C#N)=C(N)O1,u,i
O=C(NCC(c1ccc2c(c1)OCO2)N1CCOCC1)C(=O)Nc1ccc(F)cc1F (stereo not drawn),-4%,-10%
CC(NC(=O)c1ccc(NC(=O)CC2SC(N3CCCC3)=NC2=O)cc1)c1ccc(S(N)(=O)=O)cc1 (stereo not drawn),-9%,i
Cc1nc2ccccc2n2c(O)c(CC(=O)O)cc12,40%[activator],-1%
CCn1c(SCCOc2ccc(OC)cc2)nnc1C(CO)NC(=O)c1ccc(OC)cc1 (stereo not drawn),0%,-14%
CCN(c1cc(C)cc(C)c1)S(=O)(=O)c1nnc(NC(=O)c2cccc(F)c2)s1,-28%,u
Cc1ccc(N(C(=O)c2nsc(Cl)c2Cl)C(C(=O)NC2CCCC2)c2ccc(O)cc2)cc1C (stereo not drawn),u,-11%
O=c1ccc2c(-c3ccccc3)c3ccc(O)cc3oc-2c1,i,24%
COC(=O)CCN(C1CCCCC1)S(=O)(=O)c1ccc(S(=O)(=O)N2CCCCC2)cc1,-3%,0%
Cc1noc(C)c1NC(=O)N1CCN(Cc2ccccc2)CC1,-1%,-12%
CN(Cc1nc(-c2cccs2)no1)CC(O)c1ccccc1 (stereo not drawn),-3%,i
O=C1c2ccccc2C(=O)N1CCCCn1c(=O)oc2ccccc21,-27%,-25%

Filtered by structure: the entries above containing a Cl atom.
Structure,VACV Venus inh,VACV mCherry inh
O=C1NC(c2cccc3ccccc23)Nc2ccc(Cl)cc21 (stereo not drawn),11µM*,u
Cc1ccc(N(C(=O)c2nsc(Cl)c2Cl)C(C(=O)NC2CCCC2)c2ccc(O)cc2)cc1C (stereo not drawn),u,-11%

Next section
Structure,VACV Venus inh,VACV mCherry inh
COc1ccc2c(c1)/C(=C/c1cc(OC)c(OC)c(OC)c1)C(=O)N2,u,u
CCC[C@H](CN[C@@H](CNC)[C@H](C)O)NCCc1ccc(OC)cc1,-16%,i
CC1=C(c2ccc(C)cc2)S(=O)(=O)NC1=NCCCN1CCN(c2ccc(F)cc2)CC1,-28%,u
Cc1[nH]c2ccc(-c3nnc(SCC(=O)c4ccc(F)cc4)o3)cc2c1C,-14%,-23%
O=C(CCC(=O)OCC(=O)c1ccc(Cl)cc1)Nc1ccc(Oc2ccccc2)cc1,-2%,-6%
COc1cccc(C(NC(C)=O)c2nc(-c3cccc4cccnc34)cs2)c1 (stereo not drawn),-9%,-12%
CC(C)CCNC(=O)Nc1cc(C(=O)NCc2cccc(F)c2)ccc1N1CCCC1,-30%,u
COc1ccc(-n2c(/C=C/c3cc(OC)c(OC)cc3OC)nc3cc4ccccc4cc3c2=O)cc1Cl,-13%,-12%
CCC(C)N1C(=O)CCC1C(=O)N1CCN(c2ccc(F)cc2)CC1 (stereo not drawn),3%,-15%
C/C=C1/CN2[C@@H]3C4CO[C@@H]3c3c([nH]c5cc(OC)ccc35)[C@@H]2CC14 (stereo partly drawn),-10%,0%
CC(=O)N1CCN(c2cc(N3CCCC3)c(F)cc2[N+](=O)[O-])CC1,u,-25%
CCOc1ccc(C2=C/C(=C/c3cccnc3)C(=O)O2)cc1,-17%,-1%
CCOc1ccc(NC(=O)c2oc3ccccc3c2NC(=O)c2ccc(OC)cc2OC)cc1,1%,-10%
CC1=C(C(=O)N(C)C)C(c2ccc(Cl)c(Cl)c2)NC(=O)N1 (stereo not drawn),2%,-3%
O=[N+]([O-])c1cc(Cl)ccc1Sc1cccc2cccnc12,-8%,-13%
CCn1c(SCc2ccccc2F)nnc1-c1ccncc1,-6%,-1%
COc1cccc(NC(=O)C(Cc2ccccc2)NC(=O)C2CCC(C)CC2)c1 (stereo not drawn),-16%,-19%
COCCNC(=S)NC(=O)CC12CC3CC(CC(C3)C1)C2,-8%,-13%
O=C(COc1ccc([N+](=O)[O-])cc1)NCC1(N2CCOCC2)CCCCC1,-13%[7.34 µM],-10%[7.34 µM]
O=C(CSc1nc2c(c(=O)n1-c1ccc(Cl)cc1)SCC2)NCc1ccco1,-11%,-7%
Cn1c(/C=C/c2ccc(Cl)cc2)nc2ccccc2c1=O,u,-7%
CCC(CC)CN1CCC(CN2C(=O)C(=O)NC[C@@H]2[C@@H](C)CC)CC1,-1%,-11%
O=C(O)[C@@H](O)[C@H](O)C(=O)O,-26%,-1%
COc1ccc(NC(=O)CSc2ccc(-c3ccccn3)nn2)cc1OC,-3%,-8%
O=C(CCn1c(=O)c2sccc2n(CC(=O)Nc2ccccc2)c1=O)NCc1ccccc1Cl,0%,-5%

Compounds listed so far with a furan ring, fused or not, in the order listed:
Structure,VACV Venus inh,VACV mCherry inh
CCOc1ccc(NC(=O)c2oc3ccccc3c2NC(=O)c2ccc(OC)cc2OC)cc1,1%,-10%
O=C(CSc1nc2c(c(=O)n1-c1ccc(Cl)cc1)SCC2)NCc1ccco1,-11%,-7%

Later entries:
Structure,VACV Venus inh,VACV mCherry inh
Clc1ccc(-c2nnc(SCc3ccon3)o2)c(Cl)c1,u,u
CCOc1ccc2ccccc2c1CNc1nnnn1C,-16%,0%
COc1nc(NCc2cccnc2)nc(NC2CCCCC2)n1,-9%,-14%
O=C(N/N=C/c1ccccn1)c1ccc(S(=O)(=O)N2CCCCCC2)cc1,-12%,-12%
CC1CN(Cc2cccn2-c2ncccn2)Cc2cc(Cl)ccc2O1 (stereo not drawn),-1%,-6%
Cc1ccc(CCNS(=O)(=O)c2ccc3c(c2)C(C)(C)C(=O)N3C)cc1,-9%,-21%
COc1cc(SC#N)ccc1N=Cc1c(C)[nH]n(-c2ccc(C)c(C)c2)c1=O,-14%,i
COc1cc(/C=C/C(=O)OCC(=O)NCc2cccs2)ccc1OC(F)F,-5%,i
COc1cc(OC)c2ccc(=O)oc2c1C(CC(=O)N1CCCC1)c1ccc(N(C)C)cc1 (stereo not drawn),-7%,-22%
CC(C)(C)S(=O)(=O)N1C[C@@H]2CC/C=C\C/C(c3ccccc3)=C\2[C@H]1CCO,-17%,-7%
COc1ccc(-c2cn3c(n2)sc2cc(C(=O)Nc4ccccc4F)ccc23)cc1,-13%,-22%
COc1ccc(CNS(=O)(=O)c2cc(C(=O)Nc3cc(Cl)cc(Cl)c3)ccc2F)cc1,-19%,i
CCSc1ccc(C(=O)Nc2ccc(-c3nc4ccc(C)cc4s3)cc2)cc1,-8%,3%
Cc1cc(NC(=O)NCC(F)(F)F)no1,-8%,-14%
CC1CCN(C(=S)c2ccc(-c3ccc(Cl)cc3Cl)o2)CC1,-13%,-18%
O=C(NCc1ccccc1)C1=C[C@H](c2ccc(C(F)(F)F)cc2)C[C@H](OCCCCO)O1,-18%,-12%
Cc1ccccc1C(=O)Nc1cccc(OCc2cc(=O)n3c(C)csc3n2)c1,-9%,-8%
CN1CCN(c2ccc(CNC(=O)c3ccc(-c4cnn(C)c4)c4ccoc34)cc2)CC1,-41%,-7%
COc1ccc(Cl)cc1NC(=O)C(C)n1nnc2sc3c(c2c1=O)CCCC3 (stereo not drawn),-5%,-4%
COc1ccc2oc(=O)c(C(=O)NCCc3c(C)[nH]c4ccc(Br)cc34)cc2c1,-9%,-11%
CCC(C(=O)NC1CCCC1)n1c(-c2ccccn2)nc2ccccc21 (stereo not drawn),-7%,2%
Cn1c2c(c(=O)n(C)c1=O)C(NC(=O)c1cccs1)(C(F)(F)F)C(=O)N2 (stereo not drawn),0%,-9%
CCOC(=O)Cc1nnc(NC(=O)C(CC)Sc2nc(C)cc(=O)[nH]2)s1 (stereo not drawn),-3%,i
O=C(NC(N1CCOCC1)C(Cl)(Cl)Cl)c1ccco1 (stereo not drawn),-3%,i
Cc1ccc(-c2nc3ccc(Cl)cn3c2CC2CCCCC2)cc1,-1%,11%

Compound profiles (already shown).
Record of O=C(NC(N1CCOCC1)C(Cl)(Cl)Cl)c1ccco1 (stereo not drawn) → VACV Venus inh: -3%; VACV mCherry inh: i
Record of Cc1ccc(CCNS(=O)(=O)c2ccc3c(c2)C(C)(C)C(=O)N3C)cc1 → VACV Venus inh: -9%; VACV mCherry inh: -21%

Further compounds
SMILES	VACV Venus inh	VACV mCherry inh
CN1OC[C@@H]2CN(Cc3ccccc3)[C@H](c3cccc(N4CCOCC4)c3)C[C@@H]21	-9%	-34%
CCN(CC)C(=O)C[n+]1cccc(/C=N/O)c1	-5%	-1%
COCCNC(=O)c1cc(S(=O)(=O)N(C)c2ccccc2OC)ccc1C	-17%	i
Cc1ccc(N(CC(=O)Nc2c(C)cccc2C)S(C)(=O)=O)cc1	0%	i
CC(=O)c1ccc(NC(=O)c2ccc3c(c2)N(Cc2cccc(Cl)c2)C(=O)c2ccccc2S3=O)cc1 (stereo not drawn)	-15%	-20%
COc1cccc(C(=O)NNc2c3ccccc3nc3ccccc23)c1	-13%	-18%
CCN(CC(=O)Nc1c(F)cccc1F)C(=O)Cc1ccsc1	-2%	-14%
COC(=O)C1=C(CCc2ccccc2)NC(=O)NC1c1ccc(Br)cc1 (stereo not drawn)	u	i
O=C(CCn1c(=O)[nH]c2ccsc2c1=O)N1CCN(c2ccc([N+](=O)[O-])cc2)CC1	-18%	i
CCOC(=O)c1sc(NC(=O)/C=C/c2c(F)cccc2Cl)nc1C	-2%	i
COc1ccc(-c2cc(C(=O)Nc3sc4c(c3C#N)CCCC4)c3ccccc3n2)cc1OC	-18%	x
CCOC(=O)C1=C(NC(=S)NC(=O)c2ccccc2)c2ccccc2CC1C(C)C (stereo not drawn)	-9%	u
CC(C)C[C@H](NC(=O)[C@H](Cc1ccccc1)NC(=O)CNC(=O)CNC(=O)[C@@H](N)Cc1ccc(O)cc1)C(=O)N[C@@H](CCCN=C(N)N)C(=O)N[C@@H](CCCCN)C(=O)N[C@@H](Cc1ccc(O)cc1)C(=O)N1CCC[C@H]1C(=O)N[C@@H](CCCCN)C(=O)O	-5%[3.33 µM]	-13%[3.33 µM]
COc1cc2cc(CN(Cc3nnnn3Cc3ccco3)C3CCCCC3)c(=O)[nH]c2cc1OC	-17%	x
COc1ccccc1CNC(=O)c1ccc(-c2nc(CN3CCc4ccccc43)c(C)o2)cc1	-24%	u
Cc1ccc(-c2ccc(=O)n(Cc3c(F)cccc3Cl)n2)cc1	-16%	-2%
CCOc1ccc(NC(=O)c2noc3c2CSc2ccccc2-3)cc1	-5%	-1%
Clc1ccc2c(c1)C(N1CCNCC1)=Nc1ccccc1O2	u	-23%
O=C(COC(=O)c1ccc(S(=O)(=O)N2CCCC2)cc1)NCc1ccc(Cl)cc1	-6%	-14%
O=C(O)C(Cc1ccc(OS(=O)(=O)Cc2ccccc2)cc1)NS(=O)(=O)Cc1ccccc1 (stereo not drawn)	-12%	i
NC1(C(=O)O)CCc2cc(C(=O)O)ccc21 (stereo not drawn)	-11%	-13%
Cc1nn(CC(=O)NCc2ccccc2F)c(C)c1[N+](=O)[O-]	-16%	3%
Cc1cc(C(=O)CSc2nnc3ccccn23)c(C)n1-c1ccccc1	-9%	-22%
O=C1c2oc3ccccc3c(=O)c2C(c2cccc(Br)c2)N1c1ccccn1 (stereo not drawn)	-7%	-10%
CCOC(=O)c1cc2sccc2n1Cc1ccc(C#N)cc1	-12%	i
COC(=O)c1ccccc1NC(=O)CCS(=O)(=O)c1ccc(Br)cc1	-16%	-6%
C/C(=N\NC(=O)c1ccn(C)n1)c1ccc(NC(=O)c2cccc(F)c2)cc1	-11%	-13%
COc1ccc(-n2c(SCC(=O)Nc3cccc(C(=O)O)c3)nnc2-c2ccco2)cc1	-5%	-19%
CCNC(=O)COc1ncnc2scc(-c3ccc(F)cc3)c12	-8%	-3%
Nc1cc(-c2ccc(Cl)cc2)nn1-c1ccccc1	-16%	u
